# Assay outcomes deposited in PubChem BioAssay by National Center for Advancing Translational Sciences (NCATS).
# GLA inh pH 4.5: inhibitors of human alpha-galactosidase A at pH 4.5; P06280; AID 1467; purified enzyme, 4-MU-alpha-Gal fluorescence, pH 4.5; 230,000 tested, under 10 active; activity change, negative = inhibition, % at 105 µM; inconclusive = small, poorly fitted or top-dose-only inhibition, or a rising curve; inactive = flat fitted curve, though single readings scatter; no compound was filed as active;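 also: 0% = full activity with enzyme and -100% = basal without enzyme; dose as in the result columns while the protocol names 77 µM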
# miR-21 reporter: miR-21 reporter, rising signal; HeLa miR-21 FLuc reporter, luciferase, 48 h; Potency, µM (top dose mostly 38.3 µM), without a hit: at the highest dose reporter change, positive = more light; 340,000 tested, under 10 active; active = well fitted rising curve with a large enough effect; inconclusive = small, poorly fitted or top-dose-only effect; inactive = no such curve, though single readings can be large or run the other way;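 also: % of control where 0% means no effect; miR-21 action dims this reporter so a rising signal means less miR-21 action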
#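 HeLa cells stably expressing CMV-driven firefly luciferase with a downstream miR-21 binding sequence, endogenously expressing miR-21, were treated with titrations (up to about 40uM final) for 48 hours at 37 degree Celsius. Luciferase luminescence was read after lysis.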
# Rango release inh: inhibitors of RanGTP-induced Rango-importin beta complex dissociation | Biochemical FRET Rango-importin beta, RanGTP-induced dissociation | Potency, µM (titrated, usually from 46.1 µM), for the others: at the top dose activity change, negative = inhibition | 340,000 tested, 0.071% active | AID 540253; active means falling FRET ratio curve, often poorly fitted, with flat reads before Ran was added; inconclusive means other falling curves, or compound fluorescence or quenching; inactive means flat or rising ratio curve;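 also: potency is read from the fitted curve at half-maximal effect; % of control where 0% means no effect; nearly all actives have a fitted effect of over 45% in size; -100% = wells without RanGTP and RCC1; the record marks most hits as doubtful in a second field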
#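 Two FRET readings bracket the reaction: one 5 min after compound meets Rango–importin beta, another 45 min after RanGTP-RCC1 (0.6 uM Ran, 0.2 uM RCC1, 2 mM GTP) is added. Only the second defines inhibition.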
# Rango complex inh: inhibitors of Rango-importin beta complex formation. Potency, µM (highest dose often 92.2 µM), for inactives: at the top dose inhibition of complex formation. Q14974. Rango CFP/YFP FRET sensor + importin beta, 45 min. 340,000 tested, 0.031% active; active = rising FRET ratio curve, often small or poorly fitted; inconclusive = mostly compound fluorescence or quenching in the first reads; inactive = flat curves in all reads;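 also: potency is read from the fitted curve at half-maximal effect; 0% = DMSO wells and 100% = buffer wells lacking importin beta; nearly all actives have a fitted effect of over 15% in size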
# Target sequence (Q14974 whole entry, looked up): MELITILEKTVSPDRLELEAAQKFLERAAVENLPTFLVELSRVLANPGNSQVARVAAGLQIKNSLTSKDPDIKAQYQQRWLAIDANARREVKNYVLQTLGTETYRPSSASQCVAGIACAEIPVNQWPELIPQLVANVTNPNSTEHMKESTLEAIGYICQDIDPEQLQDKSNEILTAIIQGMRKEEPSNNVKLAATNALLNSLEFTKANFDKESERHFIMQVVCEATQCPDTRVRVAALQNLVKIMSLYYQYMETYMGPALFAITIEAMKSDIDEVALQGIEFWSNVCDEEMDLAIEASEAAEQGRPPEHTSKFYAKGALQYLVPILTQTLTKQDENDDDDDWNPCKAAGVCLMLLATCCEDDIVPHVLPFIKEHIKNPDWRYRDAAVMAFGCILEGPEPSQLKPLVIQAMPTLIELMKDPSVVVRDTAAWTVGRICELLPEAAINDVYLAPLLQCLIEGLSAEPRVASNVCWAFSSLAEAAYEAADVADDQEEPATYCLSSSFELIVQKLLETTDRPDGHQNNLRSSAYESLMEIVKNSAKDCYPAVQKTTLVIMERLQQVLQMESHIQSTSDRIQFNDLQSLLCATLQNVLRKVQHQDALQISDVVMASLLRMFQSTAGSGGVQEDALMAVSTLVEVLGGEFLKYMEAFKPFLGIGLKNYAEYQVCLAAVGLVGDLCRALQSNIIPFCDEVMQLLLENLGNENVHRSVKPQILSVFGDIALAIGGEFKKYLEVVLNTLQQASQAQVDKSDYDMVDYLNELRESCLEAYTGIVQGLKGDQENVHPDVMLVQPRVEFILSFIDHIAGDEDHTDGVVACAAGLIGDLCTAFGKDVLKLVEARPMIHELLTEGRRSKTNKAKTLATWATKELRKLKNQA
#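 FRET biosensor (snurportin 1 IBB flanked by EYFP and cerulean), 50 nM, with compound 5 min, then 0.125 microM importin beta in PBS, 1 mM DTT, 0.02% Tween-20, 0.1% BSA. CFP/YFP ratio read after 45 min at room temperature; pre-read flags interference.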
# An asterisk follows results filed as active; ? = inconclusive; nt = no result given; & = joins results of further samples.
SMILES,GLA inh pH 4.5,miR-21 reporter,Rango release inh,Rango complex inh
Cn1c(=O)c2c(n(C)c1=O)=NC1(CCCCC1)N=2,-6,-6%,-21%,0.7%
CC1(C)C=C2[C@H]3CC[C@@H]4[C@@]5(C)CCC(=O)C(C)(C)[C@@H]5CC[C@@]4(C)[C@]3(C)CC[C@@]2(C(=O)O)CC1,0,8%,-8%,6.3%
Cc1ccc(N(CC(=O)NCc2ccco2)C(=O)CCC(=O)Nc2nccs2)cc1C,nt,-2%,20%,-0.1%
O=C(COc1ccc([N+](=O)[O-])cc1)N1CCc2ccccc2C1,nt,1%,11%,-0.8%
CC(NC(=O)c1cccs1)c1n[nH]c(=S)n1C (stereo not given),1,-5%,-8%,2.7%
COc1ccc(C2=NS(=O)(=O)N(C)C(C(=O)NC3CCCC3)=C2)cc1OC,nt,7%,-4%,1.6%
CNC[C@H]1Oc2c(NS(=O)(=O)c3ccc(F)cc3)cccc2C(=O)N([C@H](C)CO)C[C@@H]1C,nt,nt,1%,3.4%
COc1ccc(OC)c(CNS(=O)(=O)c2cc(CN3C(=O)c4cccnc4C3=O)ccc2OC)c1,nt,-1%,-3%,-2.5%
COc1ccc(-n2c(C)n[nH]c2=O)cc1OC,-3,-3%,8%,0.7%
CCCN1CCC(=O)N(CCO)CC1,nt,-2%,1%,3.2%
CCOC(=O)c1sc(N)nc1-c1ccccc1,-3,-3%,3%,1.0%
COc1ccc(-c2csc(N(CCCN(C)C)C(=O)c3cc(OC)c(OC)c(OC)c3)n2)cc1,nt,0%,23%,4.0%
O=C(CCC1CCCC1)Nc1cc(C(F)(F)F)ccc1N1CCOCC1,nt,nt,-7%,-1.1%
CCOC(=O)c1c(NC(=O)CSc2nnc(-c3cccc(C)c3)n2CC)sc(C(C)=O)c1C,-24,-3%,-10%,-0.3%
O=C(CC1CCCCC1)OCn1nnc2ccccc2c1=O,-9,-11%,13%,0.7%
Cc1cc(C)c(NC(=O)CS(=O)CC(=O)Nc2ccc(F)cc2F)c(C)c1 (stereo not given),7,0%,0%,-3.8%
CCC(C)NS(=O)(=O)c1cc2c3c(c1)CCN3C(=O)CC2 (stereo not given),nt,0%,-18%,2.6%
Cc1[nH]c2ccccc2c1NC(=O)CN1CCN(Cc2ccc3c(c2)OCO3)CC1,-8,-12%,nt,nt
Cc1ccccc1NC(=O)CCC(=O)N/N=C/c1cccnc1,nt,0%,0%,-0.9%
CNC(=O)c1[nH]cnc1C(=O)Nc1ccccn1,3,3%,-10%,-1.2%
COc1cc(C(=O)Nc2nnc(CC(C)C)s2)c([N+](=O)[O-])cc1OC,-5,0%,-7%,-6.0%
CCCCN1CC(Br)C(=O)NC1=O (stereo not given),nt,nt,15%,3.3%
CC1=C(C(=O)OC(C)C)C(c2cccs2)NC(=O)N1 (stereo not given),-1,6%,-2%,0.5%
COc1ccc(C(=O)C2CCCN(C(=O)c3cccs3)C2)cc1F (stereo not given),-6,-4%,5%,1.0%
CCc1ccc(OC)c(S(=O)(=O)NCCOc2ccccc2)c1,-17,-1%,-4%,0.9%
Nc1nc(-c2ccccc2)c(N=Nc2ccccc2Cl)s1,-7,0%,?,?
Cc1oc(C(=O)O)cc1COc1cccc2ccccc12,nt,-7%,?,2.8%
COc1cc(/C=N/NC(=O)CCc2c(C)n[nH]c2C)cc(OC)c1OC,-1,-1%,3%,-1.8%
Cc1ccccc1N1C(=O)C(Cl)=C(N2CCN(c3ccccc3)CC2)C1=O,-16,1%,-6%,?
O=C(NCc1ccc2c(c1)OCO2)c1cc(-c2cc(Cl)ccc2O)n[nH]1,-4,-1%,-1%,1.4%
C=C(C)COc1ccc(-c2nc(N)nc(C(F)(F)F)c2-c2ccc(OC)cc2)c(O)c1,nt,10%,-3%,1.7%
COc1ccc(C(=O)NCC(c2ccccc2)c2ccccc2)cc1S(=O)(=O)N1CCOCC1,nt,nt,-2%,0.3%
O=c1cc(-c2ccccc2)nc2c(-c3ccccc3)c(C(F)(F)F)[nH]n12,21,23%,-12%,0.2%
CCOc1ccccc1C(=O)Nc1cc(C)ccc1NC(=O)c1ccco1,nt,9%,12%,-3.4%
CC(C)OC(=O)c1cc(Cl)c(=O)n(Cc2ccc(Cl)cc2Cl)c1,nt,-13%,-10%,1.8%
Cn1nnnc1SCC(=O)NC1CCCc2ccccc21 (stereo not given),11,-2%,-10%,-2.7%
O=C(NNC(=O)c1ncc(Cl)c(Cl)c1Cl)c1ccc(F)cc1,nt,0%,-18%,2.0%
O=C(CNS(=O)(=O)c1ccc2ccccc2c1)OCc1csc(-c2ccccc2)n1,2,-39%,-6%,0.7%
O=c1[nH]cnc2c1sc1nc(-c3ccccc3)c3c(c12)CCCC3,-1,-8%,5%,-5.1%
O=c1c(-c2nnc(SCc3ccc(Cl)cc3)o2)cccn1Cc1ccccc1,25,0%,-9%,-3.9%

# The list goes on, starting with the last 6 of the part before.
SMILES,GLA inh pH 4.5,miR-21 reporter,Rango release inh,Rango complex inh
CC(C)OC(=O)c1cc(Cl)c(=O)n(Cc2ccc(Cl)cc2Cl)c1,nt,-13%,-10%,1.8%
Cn1nnnc1SCC(=O)NC1CCCc2ccccc21 (stereo not given),11,-2%,-10%,-2.7%
O=C(NNC(=O)c1ncc(Cl)c(Cl)c1Cl)c1ccc(F)cc1,nt,0%,-18%,2.0%
O=C(CNS(=O)(=O)c1ccc2ccccc2c1)OCc1csc(-c2ccccc2)n1,2,-39%,-6%,0.7%
O=c1[nH]cnc2c1sc1nc(-c3ccccc3)c3c(c12)CCCC3,-1,-8%,5%,-5.1%
O=c1c(-c2nnc(SCc3ccc(Cl)cc3)o2)cccn1Cc1ccccc1,25,0%,-9%,-3.9%
CC(C(=O)N(C)C)N(C#N)c1nc(N(C)C)nc(N(C)C)n1 (stereo not given),10,0%,-19%,?
CCOC(=O)C(=CNc1ccc(N2CCOCC2)cc1)C(=O)OCC,-4,2%,-4%,1.7%
Cc1cc(C)c2[nH]c(=O)c(C(c3nnnn3Cc3ccc4c(c3)OCO4)N3CCC(C)CC3)cc2c1 (stereo not given),-3,-3%,13%,1.3%
Cc1cc(-c2ccc(Cl)cc2)n2nc(C)cc2n1,nt,-2%,-17%,-2.0%
C/C(=N\OCC(=O)OCC(=O)N(C)c1ccccc1)c1ccc2c(c1)OCO2,nt,nt,6%,3.0%
Cn1cccc1C(=O)N1CCN(S(=O)(=O)c2ccccc2)CC1,nt,nt,-7%,2.6%
Cc1cc(NC(=O)CC(C)C)c(=O)n(Cc2ccccc2F)c1,nt,-5%,0%,-4.6%
CCOc1ccc(CCNC(=O)c2sc3nc4n(c(=O)c3c2C)CCC4)cc1,nt,-1%,-17%,-1.1%
COc1ccc(Cl)cc1-n1c(=S)sc2c(=O)[nH]c(SCC(=O)NCC3CCCO3)nc21 (stereo not given),5,-2%,1%,5.4%
N#Cc1nc(-c2ccc(Cl)cc2)oc1NCCc1ccccn1,1,-18%,-1%,?
Nc1nnc(COc2cccc(C(F)(F)F)c2)s1,-1,-11%,-12%,1.1%
Cc1nc(OCc2ccccc2)c2ccccc2n1,0,-5%,1%,0.3%
Cc1nc(-c2ccccc2)sc1C(=O)/C=C/N(C)C,2,-40%,8%,3.4%
Nc1ccc2c(c1)N=[N+]([O-])c1cc(N)ccc1C2,-1,-3%,8%,2.9%
O=[N+]([O-])c1ccc(N/N=C/c2ccc[nH]2)cc1,-6,-17%,?,?
CC(=O)c1ccc(N2C(=O)NC3(CCCCC3)C2=O)cc1,-9,-36%,12%,3.3%
Cc1ccc(S(=O)(=O)N(CC(=O)NCC2CCCO2)C2CCCCC2)cc1 (stereo not given),nt,0%,46%,4.3%
C/C(=N\NC(=O)C1CC1)c1ccc2c(c1)OCCO2,8,-18%,37%,-0.4%
CC1Cc2ccccc2N1S(=O)(=O)c1cccc(C(=O)NCc2ccccn2)c1 (stereo not given),nt,nt,-10%,1.1%
CCN1CCN(C(=O)c2nn(C)c3c2CS(=O)(=O)c2ccccc2-3)CC1,nt,-1%,4%,0.3%
O=C1c2ccc([N+](=O)[O-])cc2C(=O)N1c1c[nH]c(=O)[nH]c1=O,5,0%,-28%,4.4%
CC(C(=O)Nc1sccc1C(N)=O)N1C(=O)C2CC=CCC2C1=O (stereo not given),-15,0%,5%,-0.5%
Cc1nn(-c2ccccc2)c(C)c1NC(=O)COC(=O)/C=C/c1ccccc1,nt,nt,6%,4.5%
S=c1[nH]nc(C2CCCCC2)n1/N=C/c1ccccc1,nt,-5%,0%,2.5%
CC(C)CN1CCN(Cc2nc3ccccc3s2)CC1CCO (stereo not given),-14,-8%,1%,-0.8%
COc1ccc(Nc2nc3ccccc3nc2-n2nc(C)cc2C)cc1,-6,-1%,-26%,?
CCOc1ccc(C(C#N)N2CCOCC2)cc1OC (stereo not given),-1,-4%,16%,3.1%
COc1ccc(OC)c(S(=O)(=O)Nc2ccc3oc4c(c3c2)C(=O)CCC4)c1,-1,0%,1%,-5.7%
COC(=O)CCC(=O)c1oc2ccc(Cl)cc2c1NC(=O)CCCN1C(=O)c2ccccc2C1=O,2,0%,16%,-3.6%
Cc1nnc(NC(=O)c2ccc(C)c(S(=O)(=O)N3CCCCCC3)c2)s1,-5,2%,-7%,-2.1%
CCOC(=O)CNC(=O)CSc1ncnc2c1cnn2-c1ccc(Cl)cc1,5,-5%,2%,-0.3%
COc1ccc(CCNC(=O)c2ccc3c(c2)N(Cc2ccccc2)CCS3)cc1OC,nt,20%&24%,1%,0.2%
CCCn1c(CCC(=O)O)nc2cc(S(=O)(=O)N(CC)CC)ccc21,-4,-1%,-4%,0.0%
C#CC(CC)(CC)NC(=O)c1nn(-c2ccccc2Cl)c(C)cc1=O,nt,-7%,3%,0.7%
COc1ccc(C(C)=O)cc1CSc1ncccn1,1,-14%,1%,1.2%
O=C(O)c1cccnc1C(=O)N1CCc2c([nH]c3ccccc23)C1C(F)(F)F (stereo not given),1,-1%,0%,0.2%
O=C(NCc1ccc(N2CCCC2=O)cc1)c1ccc(F)cc1,nt,-19%,9%,-4.8%
O=C(Cc1n[nH]c(=O)c2ccccc12)OCC(=O)c1ccc(F)cc1,nt,nt,-2%,-1.3%
c1ccc(Cc2nc3ccccc3o2)cc1,11,-9%,3%,-2.7%
COC(CNC(=O)c1cc(C)nn1-c1ccccc1)OC,0,-2%,9%,2.6%
O=C(CSc1ccc(-c2ccc(Cl)cc2)nn1)N1CCCc2ccccc21,0,-13%,-12%,1.8%
COc1ccc2cc(C(=O)N3CCOCC3)sc(=O)c2c1OC,-5,-6%,11%,5.4%
CCOc1ccc(C(=O)COC(=O)C2CCN(c3ccc(C(F)(F)F)cn3)CC2)cc1,nt,nt,-13%,-1.4%
CC(C(=O)NCCCn1ccnc1)(c1ccccc1)c1ccccc1,nt,11%,8%,-4.4%
COC(=O)/C=C1/SC(=NC(=O)c2cccc([N+](=O)[O-])c2)NC1=O,nt,0%,2%,0.2%
COC(=O)c1[nH]c2cc(OC)ccc2c1NC(=O)CCN1CCN(Cc2ccc3c(c2)OCO3)CC1,-5,-6%,-8%,0.8%
CCNc1nc(OCCNC(C)=O)nc(N(C)C)n1,10,-3%,26%,-2.7%
CCO[C@H]1OC(C(=O)NCc2ccccc2)=C[C@@H](c2ccc(Br)cc2)[C@@H]1CCCO,0,-1%,7%,-0.5%
N#C/C(=C\c1ccc(O)cc1)C(=O)NCc1cccc(Cl)c1,nt,0%,?,-3.6%
Cc1ccccc1NC(=O)Cc1nc(COC(=O)c2cc([N+](=O)[O-])ccc2N)cs1,nt,-5%,16%,-1.1%
CCCCN(C)CCC(=O)Nc1ccc(C)cc1,0,-4%,-1%,-1.5%
CCOc1cc(C(c2c(C)[nH][nH]c2=O)c2c(C)[nH][nH]c2=O)ccc1OS(=O)(=O)c1ccccc1,1,-1%,16%,-1.1%
CN1CCN(C(=O)c2cc3ccccc3cc2O)CC1,nt,nt,40%,6.7%
CC1NC(=O)N(C)C2NC(=O)N(C)C(c3ccccc3)C12 (stereo not given),-2,-2%,-3%,-2.9%
Cc1cccc(NC(=O)c2ccc(NS(=O)(=O)c3c(C)noc3C)cc2)c1,1,-12%,8%,0.6%

# This is a subset; rates above refer to the full screens.
